# TRPV1 PAM: potentiators of human vanilloid receptor 1 (TRPV1). Q8NER1. TRPV1-expressing cells, Fluo-8 calcium influx, capsaicin EC20 potentiation; host cell line not named in the record; control for the full effect not named in the record. potentiation, % at 8.33 µM. 320,000 tested, 0.02% active. AID 540277; active means potentiation above 80%; inconclusive means 30% to 80%; inactive means below 30%; note: 0% is about no effect
# Target sequence (Q8NER1 whole entry, looked up): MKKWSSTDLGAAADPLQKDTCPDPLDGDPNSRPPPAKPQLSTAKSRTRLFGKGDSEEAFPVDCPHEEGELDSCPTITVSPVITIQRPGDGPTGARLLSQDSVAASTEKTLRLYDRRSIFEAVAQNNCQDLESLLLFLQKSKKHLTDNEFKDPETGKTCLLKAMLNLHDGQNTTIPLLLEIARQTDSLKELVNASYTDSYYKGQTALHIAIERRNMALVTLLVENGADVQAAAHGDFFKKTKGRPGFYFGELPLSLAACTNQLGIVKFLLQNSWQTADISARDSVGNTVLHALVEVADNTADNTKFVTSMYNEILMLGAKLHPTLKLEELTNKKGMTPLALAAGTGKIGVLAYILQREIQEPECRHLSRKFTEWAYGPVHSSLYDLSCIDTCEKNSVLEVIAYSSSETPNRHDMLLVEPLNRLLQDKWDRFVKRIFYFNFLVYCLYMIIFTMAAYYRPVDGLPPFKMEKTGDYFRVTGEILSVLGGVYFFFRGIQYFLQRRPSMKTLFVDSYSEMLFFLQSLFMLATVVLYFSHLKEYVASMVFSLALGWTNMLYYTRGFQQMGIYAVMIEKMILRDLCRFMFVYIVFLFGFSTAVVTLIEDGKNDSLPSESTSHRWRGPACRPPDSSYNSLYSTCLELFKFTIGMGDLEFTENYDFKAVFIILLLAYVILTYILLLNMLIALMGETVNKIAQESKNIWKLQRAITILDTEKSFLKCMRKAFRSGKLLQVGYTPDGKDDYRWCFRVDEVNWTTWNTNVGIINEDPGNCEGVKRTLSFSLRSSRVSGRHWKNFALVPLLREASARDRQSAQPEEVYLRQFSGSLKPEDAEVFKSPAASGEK
#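 Cells expressing TRPV1 were dye-loaded with Fluo-8 and read kinetically: 10 s baseline, 3 min after compound (agonist portion), then 2 min after EC20 capsaicin (allosteric enhancer portion). Calcium-bound dye fluorescence at 480/520 nm.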
# CtBP-E1A blk: CtBP/E1A binding inhibition. 340,000 tested, 0.49% active. activity change, % (no concentration beside the values). AlphaScreen GST-E1A/His-CtBP binding, 1536-well; hits give low values; control for the full effect not named in the record. AID 651724; in the data active means activity change below about -65%; inconclusive means about -30% to -65%; inactive means above about -30%; note: % is set by controls: 0 for no effect and ±100 for the full control effect; compound concentration not given in the record
#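 GST-E1A and His-tagged CtBP (125 nM each as 5X stock) were preincubated with pin-transferred compound for 2 h at 37 °C in the dark, then glutathione donor and nickel acceptor beads were added for 1 h before AlphaScreen reading.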
# gsp ag: agonists of gsp mutant (McCune-Albright syndrome); gsp mutant cells, cAMP HTRF, 30 min; control for the full effect not named in the record; Potency, µM (titrated, usually from 76.9 µM), for the others: at the top dose activation (cAMP increase), usual class: activators; 340,000 tested, 0.13% active; active = well fitted activation curve with a large enough effect; inconclusive = small, poorly fitted or top-dose-only effect, or another doubt; inactive = no such curve, though single readings can be large or run the other way; cell line not stated here;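 note: phosphodiesterase inhibitor Ro 20-1724 added with compounds to block cAMP breakdown; potency is the fitted concentration of half-maximal effect; nearly all actives have a fitted effect of over 60% in size; about a fifth of the inactives were tested at one dose only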
#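 Cells in DMEM/10% FBS with G418 were pretreated with compounds in DMSO plus […] (300 uM stock) for 30 min at 37C. cAMP was measured by HTRF (cAMP-d2 plus anti-cAMP antibody-K) after 30 min at room temperature.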
# ClpP mod: qHTS Assay for Activators of ClpP. purified B. subtilis ClpP, FRET peptide cleavage, 20 min. Potency, µM (top dose mostly 57.5 µM), for inactives: top-dose activity change, negative = active. 340,000 tested, 1.9% active. AID 651965, 2013; active = well fitted falling curve with a large enough effect; inconclusive = small, poorly fitted or top-dose-only effect; inactive = no such curve, though single readings can be large or run the other way; note: potency is the fitted concentration of half-maximal effect; the source files actives as falling curves though it sought activators and does not explain the sign; nearly all actives have a fitted effect of over 65% in size; many hits overshoot -100%
# Target sequence (P80244 whole entry, looked up): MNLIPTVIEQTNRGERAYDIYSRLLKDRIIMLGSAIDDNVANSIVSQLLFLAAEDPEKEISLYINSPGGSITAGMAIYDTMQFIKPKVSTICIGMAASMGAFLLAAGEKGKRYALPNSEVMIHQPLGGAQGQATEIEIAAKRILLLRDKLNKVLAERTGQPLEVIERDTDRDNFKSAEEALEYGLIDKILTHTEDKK
#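 Buffer: 100 mM Tris/HCl pH8, 100 mM KCl, 0.05% low protease BSA, 2.5% glycerol, 0.01% Tween-20. ClpP 10 microg/mL final; 20 min RT; delta FRET normalized to ADEP and DMSO controls.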
# Sfp PPTase inh: blocks B. subtilis Sfp PPTase activity; Q9F4F7; Biochemical Sfp PPTase activity, qHTS; Potency, µM, without a hit: max response, negative = inhibition, usual class: inhibitors; 310,000 tested, 3.5% active; AID 1490; active = well fitted inhibition curve with a large enough effect; inconclusive = small, poorly fitted or top-dose-only effect, or another doubt; inactive = no such curve, though single readings can be large or run the other way;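 note: the enzyme is Sfp with the accession as filed and its product quenches rhodamine fluorescence; potency is the fitted concentration of half-maximal effect; 0% = enzyme reaction without inhibitor and -100% = no enzyme wells; top concentration of the series not given in the record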
#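 Buffer: 50 mM Hepes-Na pH 7.6, 10 mM MgCl2, 0.01% Nonidet P-40, 0.01% BSA. Enzyme 15 nM, pre-exposed to compound 15 min; substrates then added and fluorescence change tracked over 30 min.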
# Menin-MLL FL inh: menin-MLL binding inhibition, fluorescein peptide. Fluorescence polarization, fluorescein-MLL peptide displacement from menin. FP activity change, % at 61.4 µM. 290,000 tested, under 10 active. AID 1766; inconclusive = falling polarisation curve, or a change in total fluorescence; inactive = total fluorescence flat and polarisation flat or rising; no compound was filed as active; the % refers to the polarisation; negative = inhibition;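 note: % of control where 0% means no effect; inhibitors lower the polarisation; unlabelled MLL peptide was the positive control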
# gsp antag: gsp mutant antagonism | Potency, µM (doses to about 76.9 µM), for inactives: top-dose activity change, negative = inhibition, hits mostly inhibitors | AID 624288 | gsp-mutant cells, cAMP HTRF, 30 min; control for the full effect not named in the record | 340,000 tested, 0.4% active; active = falling curve of any shape with a large fitted effect; inconclusive = falling curve, mostly with a smaller effect; inactive = flat or rising curve; cell line not stated here;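 note: intracellular cAMP measured with PDE inhibitor Ro 20-1724 present during compound exposure; potency is the fitted concentration of half-maximal effect; % is set by controls: 0 for no effect and ±100 for the full control effect; nearly all actives have a fitted effect of over 65% in size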
#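 Cells, 2000/well, grown 16–24 h in DMEM 10% FBS with 0.5 mg/ml G418, then compounds plus […] (300 uM addition stock), 30 min at 37C. cAMP read by HTRF (cAMP-d2 and anti-cAMP antibody-K in lysis buffer) after 30 min RT.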
# * marks the source's active call; other numbers are inactive results; ? = inconclusive; . = not tested or not shown; [ ] = remark or other dose. Hits appear at their usual frequency; any-hit rate near 5.3%.
canonical_smiles	gsp ag	CtBP-E1A blk	Sfp PPTase inh	gsp antag	ClpP mod	Menin-MLL FL inh	TRPV1 PAM
Cc1c(NC(=O)COC(=O)c2ccccc2Cl)c(=O)n(-c2ccccc2)n1C	19%[15.4 µM]	24	13%	-5%	.	-2.5	6
CCCCNC(=O)C(=O)N/N=C/c1ccc(OCC(=O)Nc2cccc(OC)c2)c(OC)c1	20%	0	-12%	-3%	112%	0.7	3
CCOc1ccc2c(c1)n([O-])c1c([n+]2=O)CCCC1	12%	6	20µM*	-15%	?	-0.2	-1
COC(=O)c1c(NC(=O)c2nc3ccccc3s2)sc2c1CC(C)(C)NC2(C)C	-9%	-3	19%	4%	-2.6%	-0.9	3
c1ccc(CCN2CCN=C2Nc2ccccc2)cc1	15%	2	-5%	6%	-0.3%	-6.7	1
CN(C)S(=O)(=O)N1CCN(CC(O)COc2ccc3cc(Br)ccc3c2)CC1 (stereo not drawn)	12%	-6	-17%	-4%	1.2%	0.8	-3
O=C1c2ccccc2[C@@H]2C[C@@H](O)[C@H](Nc3ccccc3-c3ccccc3)CCN12	.	-1	.	-4%	-4.2%	.	.
CCCN(CCC)Cc1cc(=O)oc2cc3c(cc12)CCC3	-30%[15.4 µM]	16	2%	-3%	.	-1.4	4
CC[C@@]1(C(=O)OC)N[C@H](CN(C)C(=O)COc2ccccc2)[C@@H]2C(=O)N(Cc3ccccc3)C(=O)[C@@H]21	.	-20	.	-3%	-1.9%	.	.
COc1ccc(CCn2c(C)cc(C(=O)CSc3nc(N)cc(=O)[nH]3)c2C)cc1	-14%	-7	1%	?	1.9%	5.5	5
O=C1Nc2c(c(=O)[nH]c(=O)n2Cc2ccccc2)C1(NS(=O)(=O)c1ccccc1)C(F)(F)F (stereo not drawn)	-38%[inhibitor]	-17	14%	0%	.	1.6	2
COc1cc(/C=C/c2[nH]c(=O)[nH]c(=O)c2[N+](=O)[O-])cc(OC)c1O	-21%	.	-4%	-8%	0.7%	?	-2
Cc1ccc(NC(=S)Nc2ccc3[nH]c(=O)[nH]c3c2)cc1C	27%	-7	-10%	5%	-0.7%	0.3	17
CCOC(=O)c1c(C)[nH]c(C(=O)OCC(=O)c2ccccc2)c1C	-32%	-1	.	-3%	-2.7%	.	-3
O=C(C1CCC(=O)N(C2CC2)C1)N1CCN(c2cccc(Cl)c2)CC1 (stereo not drawn)	-17%	4	9%	7%	0.5%	.	0
CC(C(=O)Nc1ccc(Br)cc1)N(C)CC(=O)NCc1ccco1 (stereo not drawn)	-13%	4	.	3%	1.0%	.	-1
O=C(COc1ccc2c(c1)CCC2)N1CCN(c2ccc(F)cc2)CC1	-63%[inhibitor]	0	4%	-15%	0.3%	.	1
O=c1[nH]c2cc(Cl)c(Br)cc2o1	-38%[inhibitor]	-5	.	-8%	-0.4%	.	.
O=C(CSc1nnc(-c2ccncc2)n1Cc1ccco1)Nc1ccccc1Cl	4%	2	45µM*	5%	-1.3%	4.0	-2
Cc1cccc(NC(=O)c2ccc(S(=O)(=O)NCc3ccco3)cc2)n1	-1%	-9	.	4%	1.8%	.	0
COC(=O)c1ccc(NC(=O)c2ccc(OC(C)=O)c(OC)c2)cc1	-5%	-11	16%	-3%	-0.7%	0.4	1
CCOC(=O)C1=CN(Cc2ccco2)S(=O)(=O)NC1CC (stereo not drawn)	.	5	.	4%	-1.6%	.	.
O=[N+]([O-])c1ccc(N2CCN(S(=O)(=O)c3ccccc3)CC2)cc1NCCN1CCOCC1	7%	0	-24%	10%	0.7%	-5.5	12
CCC(NC(=O)Nc1cc(C)on1)(C(F)(F)F)C(F)(F)F	-14%	8	16%	-3%	0.0%	6.9	0
C[C@@H](C(=O)OCC(=O)NCCc1ccc(S(N)(=O)=O)cc1)N1C(=O)C2CCCCC2C1=O (stereo partly drawn)	-13%	6	7%	12%	2.6%	-1.7	-4
Cc1ccc(CSC2=NCCN2C(=O)c2ccco2)cc1	1%	0	-5%	-11%	1.1%	2.3	-6
CC(C)C[C@H](NC(=O)C1CC(=O)N(c2ccc3c(c2)OCO3)C1)C(=O)NC1CCCCC1 (stereo partly drawn)	-13%	0	11%	6%	-0.7%	.	-5
O=C(COC(=O)c1cccc(S(=O)(=O)N2CCOCC2)c1)Nc1nc(-c2ccccc2Cl)cs1	-22%	-1	3%	-18%	-1.3%	0.5	13
Cc1ccc(NS(=O)(=O)c2cccc(C(=O)NCc3ccccn3)c2)cc1	-30%[inhibitor]	0	.	-1%	-4.6%	.	26
C[C@@H]1CN([C@@H](C)CO)S(=O)(=O)c2ccc(-c3ccc(C#N)cc3)cc2O[C@@H]1CN(C)Cc1ccccn1	-30%	-4	.	.	-0.6%	.	.

# Looked up by compound from the list above:
canonical_smiles	gsp ag	CtBP-E1A blk	Sfp PPTase inh	gsp antag	ClpP mod	Menin-MLL FL inh	TRPV1 PAM
O=C(COc1ccc2c(c1)CCC2)N1CCN(c2ccc(F)cc2)CC1	-63%[inhibitor]	0	4%	-15%	0.3%	.	1
O=C(COC(=O)c1cccc(S(=O)(=O)N2CCOCC2)c1)Nc1nc(-c2ccccc2Cl)cs1	-22%	-1	3%	-18%	-1.3%	0.5	13
CC(C)C[C@H](NC(=O)C1CC(=O)N(c2ccc3c(c2)OCO3)C1)C(=O)NC1CCCCC1 (stereo partly drawn)	-13%	0	11%	6%	-0.7%	.	-5
CCC(NC(=O)Nc1cc(C)on1)(C(F)(F)F)C(F)(F)F	-14%	8	16%	-3%	0.0%	6.9	0
O=[N+]([O-])c1ccc(N2CCN(S(=O)(=O)c3ccccc3)CC2)cc1NCCN1CCOCC1	7%	0	-24%	10%	0.7%	-5.5	12

# Further compounds follow:
canonical_smiles	gsp ag	CtBP-E1A blk	Sfp PPTase inh	gsp antag	ClpP mod	Menin-MLL FL inh	TRPV1 PAM
Cc1ccc(C)n1-c1ccccc1N	.	.	-2%	.	.	?	3
CN(CC(=O)Nc1cccc(F)c1)C(=O)/C=C/c1cn(Cc2ccccc2)nc1-c1cccnc1	5%[15.4 µM]	3	.	-8%	-10%	.	20
C=CCc1ccc(OCCOCCN(C)C)c(OC)c1	-16%	0	-20%	0%	-0.2%	0.0	8
COc1ccc(NC(=O)Cn2cnc3c(cnn3C(C)(C)C)c2=O)cc1OC	-21%[15.4 µM]	8	11%	11%	.	2.7	-5
Cc1cc2ccccc2n2c(SCC(=O)NCc3cccs3)nnc12	15%	4	10%	-12%	0.9%	1.1	-4
COc1ccc(C2=NN(C(=O)c3cccs3)C(O)(C(F)(F)F)C2)cc1 (stereo not drawn)	-14%	7	45µM*	-2%	.	9.2	-13
CC(=O)Nc1ccc(S(=O)(=O)Oc2ccc(C(=S)N3CCC(O)CC3)cc2)cc1	-2%[15.4 µM]	16	56µM*	-8%	0.9%	-0.4	6
COC(=O)/C(=C1/Oc2cc3c(cc2S1)OCO3)C(F)(F)F	-13%	9	8%	-7%	-2.2%	8.8	-18
CCc1nnc(NC(=O)CSc2nnc(-c3ccccc3OC)n2-c2ccc(C)cc2)s1	-3%	1	6%	-31%	-0.5%	0.7	17
COCCNC(=O)c1c(CSc2ccc(F)cc2)noc1C(=O)NCc1ccccc1	.	10	0%	-16%	-0.5%	0.7	-18
O=C(CSc1nccc(=O)[nH]1)N1CCCc2ccccc21	-6%	6	5%	-7%	0.5%	2.5	17
CC1CCCCC1NC(=O)CCCCn1c(=O)[nH]c2ccsc2c1=O (stereo not drawn)	?	4	17%	-6%	.	1.1	-3
CCCCC(=O)Nc1cccc(NC(=O)c2cccc(Br)c2)c1	-20%	10	-1%	-14%	-2.0%	6.4	4
CC1CCCC(C)N1CCNC(=O)CCc1nnc2n(Cc3ccccc3)c(=O)c3ccccc3n12 (stereo not drawn)	?	-13	18%	8%	-17%	-2.5	-1
O=C(COC(=O)Cc1ccc(Br)cc1)NC12CC3CC(CC(C3)C1)C2	6%	9	17%	1%	0.2%	-1.1	-9
O=C(Nc1ccccc1O)c1ccc2c(c1)C(=O)N(N1C(=O)c3ccccc3C1=O)C2=O	-20%	-2	-16%	-26%	1.6%	?	4
CCOC(=O)N1CCN(C(=O)c2ccc3oc(CCc4ccccc4)nc3c2)CC1	-22%	4	.	.	-1.1%	.	.
Cc1cc(Oc2ccc(OCC(N)=O)nn2)nc(Cl)n1	24%	1	12%	-1%	.	2.4	4
C[C@@H]1CN([C@@H](C)CO)C(=O)c2cc(NS(C)(=O)=O)ccc2O[C@@H]1CN(C)Cc1ccc(C(F)(F)F)cc1	.	-16	.	-3%	-8.9%	.	.
Cc1ccc(S(=O)(=O)CCC(=O)OCC(=O)N(Cc2ccccc2)C(C)C)cc1	-2%	9	.	-4%	16µM*	.	6
CCOC(=O)c1sc(N)c(C(=O)OC)c1C	-11%[15.4 µM]	-9	-4%	23%	.	-3.7	13
CCOC(=O)C1=C(C)NC(C)=C(C(=O)OCC)C1c1ccc(OC)c(OC)c1	-16%	1	.	.	-24%	.	.
Cn1c(SCCOc2ccc(F)cc2)nnc1-c1ccncc1	-6%	-15	25%	1%	1.3%	2.9	-2
COc1ccc(C2(SCC(N)C(=O)O)c3ccccc3-c3ccccc32)cc1 (stereo not drawn)	-12%	4	.	0%	0.4%	.	.
O=C(NCc1ccco1)C(c1cccs1)N(Cc1ccccc1)C(=O)Cn1nnc2ccccc21 (stereo not drawn)	4%	-3	-17%	6%[15.4 µM]	-1.5%	2.5	0
CCc1cc2c(COC(=O)c3c(C)noc3C)cc(=O)oc2cc1O	19%	-4	5%	-19%	4.5%	0.5	5
CCC(C)NS(=O)(=O)c1ccc(NS(C)(=O)=O)cc1 (stereo not drawn)	-37%	-4	-3%	-12%	-14%	0.1	3
CCOC(=O)Cn1c(=O)oc2cc(S(=O)(=O)NCc3ccccn3)ccc21	-19%	-8	-13%	8%	-2.7%	4.8	-8

# Bioassay records: PubChem, National Center for Advancing Translational Sciences (NCATS)
